Screening data deposited in PubChem BioAssay by National Center for Advancing Translational Sciences (NCATS).
CtBP-E1A inh: blocks the CtBP interaction with E1A; 340,000 tested, 0.49% active; activity change, % (concentration not given with the values); AlphaScreen GST-E1A/His-CtBP binding, 1536-well; hits give low values; control for the full effect not named in the record; in the data active means activity change below about -65%; inconclusive means about -30% to -65%; inactive means above about -30%; note: % is set by controls: 0 for no effect and ±100 for the full control effect
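Homogeneous bead-based format: GST-tagged E1A captured on glutathione donor beads, His-tagged CtBP on nickel acceptor beads; compounds precede bead addition by 2 h at 37 °C.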
TRPML1 inh: human mucolipin-1 channel inhibition; Q9GZU1; TRPML1-inducible cells, Ca2+ dye fluorescence, FDSS; hits give low values; inhibition of EC80 agonist-evoked calcium signal; activity change, negative = inhibition, % (no concentration beside the values); 390,000 tested, 0.02% active; AID 624415; in the data active means activity change below about -50%; inconclusive means about -30% to -50%; inactive means above about -30%;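 note: stimulus is agonist 54-4 at its EC80 concentration; % is set by controls: 0 for no effect and ±100 for the full control effect; compound concentration not given in the record; the text of the record puts the active cut at -80%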
Target sequence (Q9GZU1 whole entry, looked up): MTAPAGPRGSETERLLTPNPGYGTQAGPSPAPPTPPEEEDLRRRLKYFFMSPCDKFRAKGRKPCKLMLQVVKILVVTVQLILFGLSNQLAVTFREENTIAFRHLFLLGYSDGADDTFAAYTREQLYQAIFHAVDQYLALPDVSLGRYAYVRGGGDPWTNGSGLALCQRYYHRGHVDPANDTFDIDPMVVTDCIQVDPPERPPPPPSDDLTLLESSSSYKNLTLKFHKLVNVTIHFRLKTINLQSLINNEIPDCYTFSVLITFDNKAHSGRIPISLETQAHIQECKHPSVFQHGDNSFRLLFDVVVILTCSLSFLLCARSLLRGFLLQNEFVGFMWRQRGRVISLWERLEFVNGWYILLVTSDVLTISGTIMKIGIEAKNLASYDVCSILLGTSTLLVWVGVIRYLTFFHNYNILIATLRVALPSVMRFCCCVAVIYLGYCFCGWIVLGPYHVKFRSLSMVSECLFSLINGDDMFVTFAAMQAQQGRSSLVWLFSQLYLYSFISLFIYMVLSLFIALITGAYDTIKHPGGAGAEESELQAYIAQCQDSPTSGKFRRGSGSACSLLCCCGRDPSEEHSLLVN
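Calcium fluorescence in TRPML1-DL cells induced overnight with Tet: a 110 s read after compound pin addition, then a 110 s antagonist read after challenge with 54-4 at 4 uM final (EC80).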
PINK1 expr mod: changes PINK1 expression. PINK1 immunofluorescence, high-content cytometry, 24 h. Potency, µM (highest dose often 76.6 µM), for the others: at the top dose activation (PINK1 increase), hits mostly activators. 410,000 tested, 0.2% active. AID 624263; active = well fitted activation curve with a large enough effect; inconclusive = small, poorly fitted or top-dose-only effect; inactive = flat fitted curve, though single readings scatter; cell line not stated here;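 note: potency is the fitted concentration of half-maximal effect; % of control where 0% means no effect; nearly all actives have a fitted effect of over 65% in size; a mitochondrial uncoupler was the plate control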
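Fluorescence from anti-PINK1 antibody, together with nuclear and cell stains, was scanned on a laser-scanning cytometer. Before staining, stable-line cells were incubated 24 hours with compounds at 5 concentrations; primary antibody 12 h at 10 degrees C.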
TRPML1 ag: human mucolipin-1 channel agonism | Q9GZU1 | TRPML1-expressing cells, Ca2+ dye fluorescence, FDSS; host cell line not named in the record; reference of the full effect not given here | activation, % (no concentration beside the values) | 410,000 tested, 0.12% active | AID 624414; in the data active = activation above about 50%; inconclusive = about 30% to 50%; inactive = below about 30%; note: 0% is about no effect; the text of the record puts the active cut at 80%
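Agonist activity was taken from a 110 s kinetic Ca2+ dye read on the FDSS after pinning compounds onto TRPML1-DL cells. The cells were seeded at 1,500/well with Tet inducer, incubated about 16 h, then dye-loaded at room temperature.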
D2 agonist: human D2 receptor agonism in beta-arrestin assay | P14416 | DiscoveRx PathHunter D2 beta-arrestin, luminescence, 90 min; 100% = 57 uM dopamine signal | activation, % (concentration not given with the values) | 360,000 tested, 0.084% active; in the data active = activation above about 40%; inconclusive = about 15% to 40%; inactive = below about 15%; note: compound concentration not given in the record; the text of the record calls up to 30% inactive
Target sequence (P14416 whole entry, looked up): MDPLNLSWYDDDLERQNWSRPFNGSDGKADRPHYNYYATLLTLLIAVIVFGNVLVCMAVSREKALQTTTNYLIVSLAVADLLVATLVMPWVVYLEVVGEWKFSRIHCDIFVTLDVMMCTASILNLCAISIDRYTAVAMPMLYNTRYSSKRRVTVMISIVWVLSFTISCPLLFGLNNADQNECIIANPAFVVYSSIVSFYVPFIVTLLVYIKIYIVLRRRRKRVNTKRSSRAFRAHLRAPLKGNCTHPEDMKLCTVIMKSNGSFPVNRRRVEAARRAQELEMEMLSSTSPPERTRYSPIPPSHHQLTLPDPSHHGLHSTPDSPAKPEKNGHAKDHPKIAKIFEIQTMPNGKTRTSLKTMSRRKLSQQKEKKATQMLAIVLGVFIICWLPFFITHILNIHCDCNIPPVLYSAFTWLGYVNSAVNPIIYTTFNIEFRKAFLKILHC
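Agonist mode: compounds alone added to overnight-plated D2 PathHunter cells for 90 min at 37 C, with 57 uM final dopamine (EC100) defining full response. Beta-arrestin recruitment detected by chemiluminescent reagent, read after 1 h at ambient temperature.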
Six1-Eya2 blk: inhibitors of human Six1/Eya2 interaction; Q15475+O00167; 360,000 tested, 0.56% active; AID 651725; activity change, % (no concentration beside the values); AlphaScreen GST-Six1/His-Eya2 binding, biochemical; hits give low values; control for the full effect not named in the record; in the data active = activity change below about -65%; inconclusive = about -30% to -65%; inactive = above about -30%; note: % is set by controls: 0 for no effect and ±100 for the full control effect; compound concentration not given in the record
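Homogeneous AlphaScreen proximity assay pairing GST-Six1 with His-tagged Eya2 (added as 5X mix: 250 nM and 500 nM) in 50 mM Tris pH 8.0, 300 mM NaCl, 1 mM TCEP. Glutathione donor and nickel acceptor beads; 1 h, 37 °C, dark.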
Starred values were filed as active, the others as inactive; ? = inconclusive; . = not tested or not shown; [ ] = remark or other dose.

Compound	D2 agonist	Six1-Eya2 blk	CtBP-E1A inh	PINK1 expr mod	TRPML1 inh	TRPML1 ag
O=S(=O)(NCC1CCCO1)c1ccc(S(=O)(=O)N(Cc2ccccn2)C2CC2)cc1 (stereo not drawn)	3.5	-4	-11	-0.1%	28	2.3
COc1ccc(/C=N/S(=O)(=O)c2cccs2)cc1	-1.9	2	5	.	-14	-0.3
COc1ccccc1NC(=O)/C=C/C(N)=O	2.5	1	3	1.0%[38.3 µM]	1	0.2
COC(CNC(=O)c1c[nH]c2ccc(S(=O)(=O)N(C)c3ccc(F)cc3)cc2c1=O)OC	10	-5	-10	2.4%	-5	0.8
CCCSc1nnc(-c2cccc(S(=O)(=O)N(C)C)c2)n1-c1cc(OC)ccc1OC	-1.0	-2	-3	1.6%[38.3 µM]	33	2.3
O=C(NCc1ccccc1Br)c1cnc2sc(N3CCCCCC3)nn2c1=O	.	.	.	-0.5%	10	-0.5
O=C(CCc1nnc(C2CCCCC2)o1)NCCCOc1cccnc1	-1.1	3	-9	1.0%	?	1.0
CSc1nc2sc3c(c2c(=O)[nH]1)CCC(C)C3 (stereo not drawn)	-0.6	4	13	-1.5%[38.3 µM]	14	3.8
N#Cc1c(/N=C/N2CCCC2)oc(-c2ccccc2)c1-c1ccccc1	2.4	-16	-10	-1.4%	23	1.3
O=C1CC(O)(c2ccccc2)C(c2ccccc2)=C1c1ccccc1 (stereo not drawn)	-2.3	-23	1	1.7%	6	-0.2
COc1cccc(C2CC(c3ccc(Cl)cc3Cl)Nc3nc(N)nn32)c1 (stereo not drawn)	-2.6	-4	-4	-1.4%	-2	3.0
CCCCN(Cc1ccccc1)S(=O)(=O)c1ccc2c(c1)CCN2C(=O)C1CCC1	.	.	.	4.3%	-14	-0.3
CC1CCc2c(C(=O)NCC3CCCO3)csc2C1 (stereo not drawn)	-1.8	5	7	0.7%[38.3 µM]	-14	0.4
C=CCNc1nc(C(=O)OCC(=O)c2ccc(C)c([N+](=O)[O-])c2)cs1	-4.7	-16	-4	-0.2%	2	-0.4
C=CCNC(=O)c1cc2c(=O)n3ccccc3nc2s1	4.3	-16	-22	1.1%	-19	1.1

Following part:
Compound	D2 agonist	Six1-Eya2 blk	CtBP-E1A inh	PINK1 expr mod	TRPML1 inh	TRPML1 ag
CC(C)CC(=O)Nc1nnc(S(=O)(=O)N(C)Cc2ccc(Cl)cc2)s1	.	.	.	-1.1%	4	1.0
CC(=O)c1ccc(OCCCC(=O)Nc2ccc(C)c(S(=O)(=O)N3CCCCC3)c2)cc1	0.8	-9	-7	1.2%	5	2.0
Cc1ccc(NC(=O)Nc2nnc(N3CCCCC3)s2)c(C)c1	.	.	.	1.9%	6	-0.5
Cn1c(=O)n(CC#N)c2ccccc21	-2.6	4	-8	-3.0%	-4	-0.5
Nc1nc(CSC(=S)N2CCN(c3ccccc3)CC2)nc(Nc2ccc(F)cc2)n1	-5.6	-17	3	3.4%	-1	-0.3
CC1=CN2C(=N)/C(=C/c3ccc([N+](=O)[O-])o3)C(=O)N=C2S1	5.1	?	-25	?	10	3.4
Cc1ccccc1Cn1ccc(NC(=O)c2nc3ncccn3n2)n1	-1.0	-4	2	2.6%	7	-0.3
Cc1ccc(OCC(=O)Nc2ccc3c(c2)nc(CCN2CCCCC2)n3C)cc1	0.0	-6	.	-1.4%	-3	0.8
O=C(Nc1ccc(Cl)c(S(=O)(=O)N2CCOCC2)c1)c1cc(=O)[nH]c2ccccc12	1.0	-1	.	0.9%	7	-0.5
COc1cccc(OC)c1-c1nn(-c2ncc(C(F)(F)F)cc2Cl)c(=O)o1	-6.3	2	-5	0.0%	14	0.2
Cc1ccc(NC(=O)Nc2ccc3c(c2)C(=O)OC3)cc1Cl	-4.8	10	.	1.3%	-11	-0.6
COc1ccc(C(=O)OCC(=O)Nc2ccc(Cl)c(C(F)(F)F)c2)c(OC)c1OC	0.9	-10	3	-0.2%	13	1.4
CC(C)(C)C(=O)Nc1ccccc1C(=O)NCc1cccnc1	-5.7	8	.	2.0%	5	-0.8
CCn1c2ccccc2c2cc(NC(=O)COc3cccc(C)c3)ccc21	.	.	.	2.7%	-6	1.2
CC(C)=CCC/C(C)=C/CNC(=O)C[C@H]1C[C@H](C(=O)N2CCCCC2)[C@@]2(C)c3[nH]c4ccc(Cl)cc4c3CCN2C1=O	-1.6	2	-1	-0.3%	-9	-1.0

The listing continues.
Compound	D2 agonist	Six1-Eya2 blk	CtBP-E1A inh	PINK1 expr mod	TRPML1 inh	TRPML1 ag
O=C(NC(Cc1c[nH]c2ccccc12)C(=O)OCC(=O)c1cccc2ccccc12)c1cccs1 (stereo not drawn)	-1.8	-19	-19	-0.9%	41	1.5
Cn1c(N/N=C\c2cccc(O)c2)cc(=O)n(C)c1=O	-0.1	-23	-25	-1.0%	9	0.6
CCOc1ccc(-c2cc(CCCC(=O)NCCc3ccc(Cl)cc3)no2)cc1	.	.	.	0.5%	10	1.0
COc1cccc(C2NC(=O)NC(C)=C2C(=O)OCC2CCCCC2)c1 (stereo not drawn)	-3.0	-21	-8	3.2%	-1	0.6
Cc1ccc(N(CC(=O)NCc2cccnc2)S(C)(=O)=O)cc1C	-0.8	-2	-3	0.8%	-16	3.3
CCC(C)(C)n1nnnc1C(c1ccc2ncccc2c1)N1CCN(Cc2ccc3c(c2)OCO3)CC1 (stereo not drawn)	-1.6	-10	-17	.	4	-0.3
CCc1c(Nc2ccccc2C)nc(N)[nH]c1=O	0.0	5	2	-0.7%	5	1.1
C=Cc1ccc(Cn2c(C)c(C(=O)NCc3cccc([N+](=O)[O-])c3)sc2=O)cc1	4.9	-13	-15	0.2%	.	0.8
O=C(c1cccc(Oc2ccc([N+](=O)[O-])cc2Cl)c1)N1CCOCC1	-3.2	2	1	-3.4%	-11	-0.3
O=C(CN(Cc1ccccc1)S(=O)(=O)c1ccccc1)N1CCOCC1	-2.4	4	0	.	-1	-0.5
Cc1c(C(=O)N2CCCC2)oc2c1-c1nn(CC(=O)NC(C)c3ccccc3)cc1CC2 (stereo not drawn)	.	.	.	2.7%	2	0.7
O=C(CSc1n[nH]c(-c2cccnc2)n1)Nc1ccc(Br)cc1	-3.6	6	-2	0.6%	2	1.4
Cc1cc(C)c(C#N)c(SCCN2CCCCC2)n1	-0.3	5	2	0.2%	18	-1.1
O=C(CSc1nc2ccc(Cl)cc2[nH]1)NC1CCCC1	-1.0	-10	-6	2.0%	-5	1.0
COc1cccc(CNC(=O)Cn2ncn3cccc3c2=O)c1OC	-2.9	0	1	2.2%	-4	0.5

(next part)
Compound	D2 agonist	Six1-Eya2 blk	CtBP-E1A inh	PINK1 expr mod	TRPML1 inh	TRPML1 ag
Cn1c(=O)[nH]c2cc(-c3noc(-c4ccc(C#N)cc4)n3)ccc21	.	.	.	-3.2%	-6	1.1
O=C(CCCN1C(=O)CCC1=O)Nc1cccc(C(F)(F)F)c1	-2.0	2	3	2.6%	-1	-0.2
C[C@@H]1COC(=O)[C@H](CC(=O)OC(C)(C)C)C/C=C\C[C@@H](CC(=O)NCCO)C(=O)N1	-1.1	16	.	1.9%	-8	0.2
Cn1cc(/C=N/n2cnc3sc4c(c3c2=O)CCCC4)c2ccccc21	-1.3	3	2	-1.0%	4	0.3
O=[N+]([O-])c1ccc(-c2c(-c3ccccc3)ncc3ccc(F)cc23)cc1	1.8	-29	-25	3.0%	34	2.7
Cc1ccc(C(C(=O)NC2CCCCC2)N2CCC3(CC2)OCCO3)cc1 (stereo not drawn)	-2.4	-9	-4	4.2%	-6	-0.4
CC(=O)c1ccc(N2C(=O)N(CC(=O)c3ccc(F)cc3)c3ccccc3S2(=O)=O)cc1	.	.	.	5.9%	16	0.6
COc1cccc(C2CC(c3ccc(Cl)cc3)Nc3nc(N)nn32)c1 (stereo not drawn)	2.3	-3	2	-0.9%	9	0.4
O=C(COC(=O)c1ccc(S(=O)(=O)N2CCCC2)cc1)NCc1ccco1	1.3	-1	-4	5.3%	-12	1.0
Cc1ccc(NC(=O)COC(=O)c2cccnc2Cl)cc1S(=O)(=O)N1CCCCC1	-2.2	-10	7	2.5%	-6	0.1
CCCCn1c(N)c(N(CCOC)C(=O)CCCc2nc3ccccc3s2)c(=O)[nH]c1=O	2.7	15	-22	1.6%	-20	0.0
CC(=O)NC1C(Oc2ccc3c(C)cc(=O)oc3c2)OC(COC(C)=O)C(OC(C)=O)C1OC(C)=O (stereo not drawn)	-2.8	-4	9	1.9%	24	0.8
O=C(COc1ccc(Br)cc1Cl)N1CCN(c2ccccn2)CC1	-0.9	-2	-1	0.9%	49	1.3
O=C(NNC(=S)Nc1ccc(F)cc1)C1CC1c1ccc(Cl)cc1 (stereo not drawn)	-10	3	-1	-0.2%	8	0.3
CCc1ccc(-c2nc3cc(NC(=O)c4ccc(F)cc4)ccc3o2)cc1	.	.	.	2.4%	-12	-0.4

Brought forward from above: 3 entries, followed by the next part.
Compound	D2 agonist	Six1-Eya2 blk	CtBP-E1A inh	PINK1 expr mod	TRPML1 inh	TRPML1 ag
O=C(COc1ccc(Br)cc1Cl)N1CCN(c2ccccn2)CC1	-0.9	-2	-1	0.9%	49	1.3
O=C(NNC(=S)Nc1ccc(F)cc1)C1CC1c1ccc(Cl)cc1 (stereo not drawn)	-10	3	-1	-0.2%	8	0.3
CCc1ccc(-c2nc3cc(NC(=O)c4ccc(F)cc4)ccc3o2)cc1	.	.	.	2.4%	-12	-0.4
O=C(NCC(=O)N(Cc1cccs1)C(C(=O)NC1CCCCC1)c1ccncc1)c1ccco1 (stereo not drawn)	-5.0	-2	1	0.2%	-14	-0.5
CNc1ncnc2c1ncn2[C@H]1CN(Cc2ccccc2)C[C@@H](CO)O1	-3.2	6	4	0.2%	.	-0.3
CC(=NNc1ccc([N+](=O)[O-])cn1)c1ccc(N)cc1	-4.9	-14	-10	0.7%	5	0.4
CC(=O)N1c2ccc(S(=O)(=O)N3c4ccccc4CC3C)cc2CC1C (stereo not drawn)	2.5	2	.	4.6%	-13	-0.1
CC1(C)CC(=O)C=C(Nc2ccc(O)cc2)C1	-1.4	5	-20	1.5%	-16	0.0
